Assay outcomes as filed in PubChem BioAssay.
T cruzi repl – blocks replication of Trypanosoma cruzi. 1.4% of 300,000 active. T. cruzi beta-gal in NIH3T3, luminescence, 90 h. inhibition, % (test concentration not listed). AID 1885;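 active = mean inhibition across valid replicates above about 55%, limit read from the data; inconclusive = mean below that limit but half or more replicates reach it; inactive = mean below it, under half of replicates reach it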;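 also: signal also drops with host cell toxicity which is not excluded here; 0% = plate median of DMSO wells and 100% = zero luminescence signal; higher percent means less beta-gal luminescence so fewer parasites; stock transfer was 50 nL into about 50 µL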
rRNA inh HTS – selective bacterial rRNA inhibition in E. coli; E. coli WT GFP vs humanized-ribosome RFP mutants, fluorescence, 24 h; hits give low values; DMSO median 0, no signal -100; AID 720706; 1.6% of 350,000 active; GFP signal change (wild-type ribosome), % (test concentration not listed);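 active = significant combined selectivity score with lowered wild-type GFP, culture density cut under 30%, mutant RFP and density less affected; inactive = any of these conditions unmet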; also: one replicate is shown; some compounds called inactive have numbers as strong as hits
RanGTP-Impb inh – inhibitors of RanGTP-importin-beta interaction, primary screen, biochemical, FRET, CFP-Ran, YFP-importin-beta, homogeneous; cell-free CFP-Ran/YFP-importin-beta FRET ratio; inhibition, % (test concentration not listed); 1.1% of 300,000 active; AID 2216;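 active = most replicates above 15%; inconclusive = exactly half above 15%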;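 also: 0% = DMSO wells and 100% = Ran loaded with GDP instead of GTP; wells of about 40 µL received 100 nL stock; the first replicate is given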
Bfl-1 A1 inh – inhibitors of the anti-apoptotic protein A1, read as caspase activation; MEF A1-2A-BIM cells, Caspase-Glo 3/7 luminescence, 3 h; percent of clofoctol response, vehicle zero; caspase activation, % (no concentration beside the values); 0.066% of 330,000 active; AID 2462;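 active = over half of replicate activation scores above 10%, or exactly half above 10 with the replicate mean above 10; inconclusive = replicate mean below 10 yet half the replicates above 10; inactive = over half of replicates below 10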;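 also: wells of about 30 µL received 50 nL stock; many hits fall short of the cut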
Vif A3G – HIV-1 Vif–A3G interaction blockers – biochemical, TR-FRET, GST-Vif 1-94, biotin-A3G peptide, dose response retest, primary screen (AID 1117319); one-dose inhibition, %; IC50 in µM for titrated hits; 0.57% of 260,000 active; TR-FRET GST-Vif / biotin-A3G peptide binding; higher % means a stronger effect; test concentration not given here; strong numbers were not always called active;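 active = above the screen mean plus three standard deviations and confirmed in dose response; inconclusive = results disagree or hit not tested in dose response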;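 also: Vif residues 1-94 fused to GST binding biotinylated APOBEC3G peptide 110-148; 0% = full assay without inhibitor and 100% = GST in place of GST-Vif; retest series ran down from 100 µM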
Beta cell apopt – blocks beta cell apoptosis | 0.8% of 300,000 active | INS-1E cytokine-induced death, ATP luminescence, 48 h; percent of positive-control rescue, neutral wells zero | protection from apoptosis, % (no concentration beside the values) | AID 435005;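 active = all replicates at 75% or more, or half of them and the mean; inconclusive = half reach 75% but not the mean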;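 also: 0% = cytokine-treated negative control wells and 100% = positive control rescue; higher means more ATP so stronger rescue from cytokine killing; wells of about 40 µL received 100 nL stock; the first replicate is given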
Calb FLC – affects C. albicans growth with fluconazole | C. albicans CaCi-2 (fluconazole-resistant clinical isolate) + fluconazole, Alamar Blue growth, 48 h | growth inhibition, % (concentration not given with the values) | 0.57% of 300,000 active;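 active = most replicates above 75%; inconclusive = exactly half above 75%; inactive = most below 75%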;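 also: all wells also contain fluconazole at 8 µg/ml as a sub-toxic cotreatment; 0% = median of DMSO wells and 100% = median of geldanamycin control wells; wells of about 8 µL received 7.5 nL stock; the first replicate is given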
AF4-AF9 inh – blocks AF4 peptide binding to human AF9 | AlphaScreen, biotin-AF4 peptide binding to FLAG-AF9 | P42568 | 0.47% of 350,000 active | AID 651704 | inhibition, % at 10 µM;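 active = every replicate reaching a set inhibition limit, whatever the replicate mean, cut at about 25% in these data; inconclusive = mean inhibition reaches that limit but some replicates miss it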;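 also: 0% = plate neutral control median and 100% = total signal loss; the record names both 10 and 1 µM as test concentration; the first replicate is given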
Target sequence (P42568 whole entry, looked up): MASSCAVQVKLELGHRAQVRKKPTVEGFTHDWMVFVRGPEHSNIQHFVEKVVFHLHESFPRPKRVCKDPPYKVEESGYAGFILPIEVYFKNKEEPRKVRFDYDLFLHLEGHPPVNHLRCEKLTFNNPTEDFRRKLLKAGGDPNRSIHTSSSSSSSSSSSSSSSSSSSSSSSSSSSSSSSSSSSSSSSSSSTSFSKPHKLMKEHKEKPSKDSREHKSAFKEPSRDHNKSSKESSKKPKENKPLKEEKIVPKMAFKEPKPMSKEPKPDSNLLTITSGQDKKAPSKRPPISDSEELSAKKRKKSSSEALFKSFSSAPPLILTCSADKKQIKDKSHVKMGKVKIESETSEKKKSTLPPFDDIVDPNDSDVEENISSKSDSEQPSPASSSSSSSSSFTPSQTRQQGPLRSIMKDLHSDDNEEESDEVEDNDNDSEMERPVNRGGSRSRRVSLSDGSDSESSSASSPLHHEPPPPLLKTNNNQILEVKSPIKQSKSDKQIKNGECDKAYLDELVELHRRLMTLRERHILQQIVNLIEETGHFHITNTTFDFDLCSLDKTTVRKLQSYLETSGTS
rRNA inh HTS OD600 – recorded beside rRNA inh HTS, whose call it bears; OD600 change, %; measured here: OD600 growth;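 optical density of the mix in the first replicate; 0 = DMSO median and -100 = no signal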
rRNA inh HTS RFP – second read-out of rRNA inh HTS, no call of its own (marks repeat the call); RFP signal change, %; measured here: RFP humanized mutant strains;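 first replicate; 0 = DMSO median and -100 = no signal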
Active calls of the source: *; ? = inconclusive; nt = not tested or not shown. These rows are one share of the data, so the mix of outcomes need not match the whole.

SMILES	T cruzi repl	rRNA inh HTS	rRNA inh HTS OD600	rRNA inh HTS RFP	RanGTP-Impb inh	Bfl-1 A1 inh	Vif A3G	Beta cell apopt	Calb FLC	AF4-AF9 inh
O=C(CSc1n[nH]c(=O)n1C1CC1)Nc1ccccc1	-14.9	0.7	12.7	-0.1	2.4	1.2	nt	-1.1	10.8	-3.8
CCCC(=O)N(CCN(C(=O)CCC)c1ccccc1)c1ccccc1	10.1	nt	nt	nt	0.7	-0.3	8.8%	78.8*	?	nt
CSc1ccc(C2CC(=O)Nc3c2c(=O)n(C)c(=O)n3C)cc1 (stereo unspecified)	-9.2	6.7	8.6	2.5	-5.7	0.3	?	-5.2	3.4	4.0
O=C1N/C(=N\S(=O)(=O)Cc2ccccc2)S/C1=C/c1cc([N+](=O)[O-])ccc1O	-7.3	-20.0*	-1.1*	3.7*	-38.8	0.3	-6.5%	-0.8	5.7	nt
COc1ccc(CC(=O)NNS(=O)(=O)c2ccccc2[N+](=O)[O-])cc1	-19.8	-15.8	-7.8	-0.3	-4.1	-0.6	-6.8%	-1.5	17.8	0.3
COc1ccc(-c2cc(C(=O)NCCN3CCOCC3)c3ccccc3n2)c(OC)c1	-6.5	nt	nt	nt	2.8	-1.0	7.3%	-4.6	-3.9	nt
COc1cc(C2c3c([nH]c(=O)[nH]c3=O)Nc3ccc4ccccc4c32)ccc1O (stereo unspecified)	-15.5	-25.4	-41.5	-2.4	6.4	-0.4	?	-5.8	0.6	-0.2
CCc1cc(C(=O)O)c(NC(=O)c2cc(OC)c(OC)c(OC)c2)s1	9.3	-22.8	-25.1	0.4	0.9	0.7	nt	-0.1	-0.3	-0.2
c1ccc2c(c1)CCc1snnc1-2	-13.7	1.7	3.7	-2.5	-2.4	0.5	nt	-3.7	-0.2	-0.4
CC(C)c1ccc(NC2=CC(=O)CC(C)(C)C2)cc1	8.5	7.7	7.0	-7.1	8.1	0.8	-5.2%	6.9	-0.7	-0.2
CC1CCCCC1N1CCN(C(=O)c2cccc(F)c2)CC1 (stereo unspecified)	6.2	nt	nt	nt	-0.3	0.1	-2.8%	nt	2.3	nt
CCOc1ccc(CNC(=O)CCCN2C(=O)C(c3ccccc3)Oc3cccnc32)cc1 (stereo unspecified)	6.2	2.8	-1.1	-4.5	3.1	1.0	-3.1%	-1.2	-10.6	1.4
Cc1ccc(NC(=O)N/C=C/c2ccc(Cl)cc2)cc1	-4.6	nt	nt	nt	1.8	2.5	-2.4%	-3.1	1.0	nt
COc1ccccc1C(=O)Nc1ccc(N2CCN(C(C)=O)CC2)cc1	-1.1	-4.0	-0.6	-1.6	0.6	0.2	14.4%	2.7	5.0	-0.4
Cc1cc(N2C(=O)C(O)=C(C(=O)c3ccco3)C2c2ccccc2F)no1 (stereo unspecified)	3.1	5.3	-2.7	0.3	2.6	-0.3	nt	-5.1	5.0	-1.5
CCc1ccc2nc(N3C(=O)C(O)=C(C(=O)c4ccco4)C3c3cccs3)sc2c1 (stereo unspecified)	-5.1	nt	nt	nt	1.6	-6.5	-2.8%	-0.2	60.9	nt
CC1C(c2ccccc2)C(C#N)(C#N)C2(C#N)C(=O)NC1(N)C2C (stereo unspecified)	-17.9	-4.2	4.5	4.9	-0.2	0.5	16.2%	-7.2	9.4	nt
CCOC(=O)Nc1ccc2c(c1)N(C(=O)CCN(CC)CC)c1ccccc1CC2	-3.1	0.6	-0.8	1.6	1.5	1.1	?	nt	-2.9	0.7
Cc1ccc(-n2c(C)cc(/C=N/NC(=O)CC3(C)OCCO3)c2C)cc1	8.9	nt	nt	nt	0.5	0.1	-4.5%	-12.1	-18.5	nt
O=S(=O)(Nc1ccc2nc(C(F)(F)F)[nH]c2c1)c1ccccc1	-17.7	nt	nt	nt	4.8	-0.2	26.7%	-1.8	-0.2	nt
CC(=O)NCCNC(=O)c1cccc(NS(=O)(=O)c2ccc3c(c2)OCCO3)c1	-6.9	11.6	9.3	1.5	1.6	0.3	7.2%	-0.4	-2.0	-0.9
CN(C)CCCOC(=O)N1c2ccccc2C=Cc2ccccc21	7.0	15.1	22.4	2.2	6.3	0.6	0.4%	-12.4	-1.3	1.9
N#C/C(=C\c1cn(CC(=O)O)c2ccccc12)C(=O)NCc1ccccc1	-0.4	-4.6	1.4	0.9	4.6	-0.9	nt	-0.8	10.0	8.0
COC(=O)c1ccccc1NC=C1C(=O)OC2(CCCCC2)OC1=O	-7.8	nt	nt	nt	7.1	-1.0	1.9%	-8.0	2.8	nt
Cc1cc(=O)[nH]c(SCC(=O)Nc2nc3c(s2)CCCC3)n1	-7.0	nt	nt	nt	-0.5	0.5	1.6%	nt	-8.1	nt
Cc1nc(SCC(=O)N2CCCCCC2)[nH]c(=O)c1C	-6.2	4.3	7.6	0.3	2.0	0.7	1.5%	-3.5	1.2	-6.0
N#Cc1cnn(-c2cccc(Cl)c2)c1-n1cccc1	2.1	nt	nt	nt	-2.1	-0.2	-5.5%	-5.9	-2.9	-1.3
CN(c1ccccc1C(=O)Nc1cccc(Cl)c1Cl)S(C)(=O)=O	-16.3	-6.8	-5.7	4.2	-1.0	0.5	-1.4%	nt	8.6	nt
O=C(NNC(=O)c1ccc2ccccc2c1O)NC1CCCCC1	14.4	-13.6	-19.0	-3.8	3.6	-1.0	2.4%	-3.6	?	-8.0
CCOC(=O)/C(C#N)=C1/C=CN(Cc2ccccc2)C=N1	-11.9	nt	nt	nt	5.3	-0.2	1.1%	-4.9	6.5	nt

As entered above:
Value of N#Cc1cnn(-c2cccc(Cl)c2)c1-n1cccc1 under T cruzi repl: 2.1
Value of CCc1ccc2nc(N3C(=O)C(O)=C(C(=O)c4ccco4)C3c3cccs3)sc2c1 (stereo unspecified) under Vif A3G: -2.8%
Value of N#C/C(=C\c1cn(CC(=O)O)c2ccccc12)C(=O)NCc1ccccc1 under rRNA inh HTS OD600: 1.4

Reprinted at random: 2 records from the list
SMILES	T cruzi repl	rRNA inh HTS	rRNA inh HTS OD600	rRNA inh HTS RFP	RanGTP-Impb inh	Bfl-1 A1 inh	Vif A3G	Beta cell apopt	Calb FLC	AF4-AF9 inh
CCOC(=O)/C(C#N)=C1/C=CN(Cc2ccccc2)C=N1	-11.9	nt	nt	nt	5.3	-0.2	1.1%	-4.9	6.5	nt
COC(=O)c1ccccc1NC=C1C(=O)OC2(CCCCC2)OC1=O	-7.8	nt	nt	nt	7.1	-1.0	1.9%	-8.0	2.8	nt

Other structures:
SMILES	T cruzi repl	rRNA inh HTS	rRNA inh HTS OD600	rRNA inh HTS RFP	RanGTP-Impb inh	Bfl-1 A1 inh	Vif A3G	Beta cell apopt	Calb FLC	AF4-AF9 inh
Cc1cccc(Nc2nc3c(S(=O)(=O)c4ccccc4)nnn3c3ccccc23)c1C	6.1	11.5	10.0	-7.0	-1.4	2.2	-6.3%	8.3	-5.7	-1.6
O=C(Nc1cccc(Cl)c1N1CCCC1)c1cc2ccccc2o1	29.8	nt	nt	nt	1.2	-1.6	14.7%	8.5	-2.0	nt
CCCN(C(=O)c1cc(S(=O)(=O)N2CCCCC2)ccc1Cl)C1CCS(=O)(=O)C1 (stereo unspecified)	7.6	6.5	2.0	4.9	-0.6	0.0	-3.5%	3.3	4.7	2.9
COC(=O)COC(=O)CC(CC(N)=O)c1ccccc1 (stereo unspecified)	-7.9	nt	nt	nt	0.7	-0.3	-2.8%	2.4	-28.4	nt
Cn1c(NC(=O)c2ccco2)c(-c2ccccc2Cl)c(=O)c2ccccc21	-12.1	nt	nt	nt	-1.1	1.3	5.1%	-0.1	-1.5	nt
CC1CN(c2c3c(nc4ncnn24)CCCC3)CC(C)O1 (stereo unspecified)	-6.6	nt	nt	nt	1.9	-0.8	-0.5%	2.7	-4.7	nt
Cc1ccc(NC(=O)CSc2nnnn2C)cc1S(=O)(=O)N(C)C	0.7	-3.9	2.3	-8.0	2.9	0.7	nt	1.5	-0.9	-7.6
C(=N\Nc1nc2ccccc2[nH]1)/c1ccccc1	-4.1	-53.5	-82.2	-15.8	-2.2	-2.0	0.1%	11.6	-3.5	6.5
CSc1nc2ccccc2n1Cc1cccc([N+](=O)[O-])c1	6.1	-2.4	-4.6	-0.9	-2.4	-0.3	-3.7%	0.1	-8.1	0.3
COc1ccc(S(=O)(=O)Nc2ccc3c(c2)n(C)c(=O)n3C)cc1	-17.9	8.5	10.5	2.0	-1.4	0.7	-0.8%	5.9	0.5	0.4
C[C@@H](Nc1nc(-c2ccccc2)nc2c1oc1ccccc12)C(=O)O	-5.6	-25.4*	-3.5*	7.0*	3.1	-0.6	-1.5%	2.4	11.0	-0.5
COC(=O)c1sccc1NC(=O)COc1ccccc1Cl	1.5	nt	nt	nt	?	-5.8	12.4%	0.4	2.6	nt
CCCc1cc(-c2[nH]ncc2-c2ccc(C(=O)OCC)o2)c(O)cc1O	2.2	nt	nt	nt	5.1	-0.1	12.1%	23.0	9.0	nt
CCOC(=O)c1[nH]c(C)c(C(=O)Nc2ccc(C)c(Cl)c2)c1C	-12.1	nt	nt	nt	?	-0.6	12.1%	6.9	2.8	nt
CCC(c1nnc(SCC(=O)Nc2cc(Cl)ccc2C#N)n1C1CCCCC1)N(C)C (stereo unspecified)	13.3	-15.8	-19.8	2.8	1.5	-0.2	nt	2.0	7.6	1.8
Cc1noc(C)c1C(=O)NCCC1=CCCCC1	2.1	nt	nt	nt	0.4	0.2	25.9%	-1.7	-6.9	nt
O=C(c1ccco1)N1CCc2[nH]nc(-c3ccccc3)c2C1	-2.2	-6.3	1.0	5.0	-2.1	0.2	nt	-1.9	-0.1	0.4
COc1ccc(CCNC(=O)C(C)n2nc(C)c3c(C)n(-c4ccc(C)cc4)nc3c2=O)c(OC)c1 (stereo unspecified)	13.5	-8.4	-19.2	2.7	0.6	0.8	nt	13.0	-5.5	3.0
COc1cc(OC)c(OC)cc1/C=C/c1cc(C(=O)O)c2ccccc2n1	0.4	-29.8*	-17.8*	-4.7*	-2.0	1.0	13.8%	-7.4	3.6	-6.4
COc1ccc2[nH]c(=O)c(CN(C)C(=O)COc3ccccc3)cc2c1	6.5	nt	nt	nt	2.4	0.1	27.1%	-4.1	23.0	nt
Cc1onc(-c2c(Cl)cccc2Cl)c1C(=O)NCc1ccc(S(N)(=O)=O)cc1	-3.2	5.7	7.9	-1.3	2.6	0.5	nt	-6.7	10.8	0.1
O=C(O)C1CSC2(c3ccc(F)cc3)CCC(=O)N12 (stereo unspecified)	-12.7	4.3	14.6	2.5	1.9	-0.4	nt	-2.7	-2.0	-2.1
Clc1ccc(-c2nc3cnccn3c2NC2CCCC2)cc1	16.1	nt	nt	nt	-1.6	-0.9	10.9%	7.0	-26.8	nt
